Biofilm kill mix: mixture kills Candida albicans biofilm cells. C. albicans biofilm persisters + clotrimazole, fluorescence viability; primary screen in compound mixtures of four per well. inhibition, % at 7.6 µM. 120,000 compounds, 0.02% hits. AID 1242;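 active = inhibition above 30.3% in the primary screen of four-compound pools, then above 30% when the compound was retested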;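 also: compounds exposed to preformed 24 h biofilms for 48 h; the number belongs to the whole pool; some results filed as inactive read as strong as hits; inactives centre near 12; 0% = biofilm with clotrimazole alone and 100% = kill control; retested singly at about 60 µM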
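System: C. albicans CAF4-2 wild-type biofilms; Medium: RPMI/MOPS medium, pH 7.0; Reagent: Clotrimazole, 50 µg/mL; Times: biofilm formation 24 h, compound exposure 48 h, 37 °C; Detection: 2-h Alamar Blue fluorescence, 535/590 nm excitation/emission; Evaluation: percent inhibition of biofilm viability.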
* marks the source's active call; other numbers are inactive results. Not all compounds are listed; the hit share may differ from the screen's.

SMILES	Biofilm kill mix
CC(=O)Nc1ccc(S(=O)(=O)C(C#N)c2nc3ccccc3nc2NCCN2CCOCC2)cc1 (stereo unspecified)	9
S=c1nc(SCc2ccccc2)[nH]c2ccccc12	-15
CCN(CC)C(=O)c1sc(N)c(C(=O)OC(C)C)c1C	15
CCOC(=O)CSc1ccc(C(=O)N2CCN(C)CC2)cc1[N+](=O)[O-]	16
COc1ccc(C(=O)NC(C)c2nc3ccccc3[nH]2)cc1OC (stereo unspecified)	14
NC(=O)c1ccc(NC(=O)Cn2c(=O)n(-c3ccccc3)c(=O)c3oc4ccccc4c32)cc1	12
COC(=O)c1ccc(C(C2C(=O)CC(C)(C)CC2=O)C2C(=O)CC(C)(C)CC2=O)cc1	22
CCc1ccc(NC(=S)N(CCN2CCOCC2)Cc2ccccc2F)cc1	15
Cc1c(C(=O)OCC(=O)Nc2c(C)n(C)n(-c3ccccc3)c2=O)oc2ccccc12	20
Cc1cc(C)c2c(SC(C)C)nc(N)nc2n1	18
O=C(Nc1ccc(F)cc1)C1CCN(S(=O)(=O)c2cccs2)CC1	25
COc1ccc(-n2nc(C(=O)NCc3ccco3)c3c4ccccc4n(C)c3c2=O)cc1	18
O=C(Nc1nc2ccc(F)cc2s1)C1CCN(S(=O)(=O)c2cc([N+](=O)[O-])ccc2Cl)CC1	18
Cc1nsc(Nc2ccccc2)c1C#N	13
C=CCn1cc(/C=N/Nc2nc3ccccc3[nH]2)c2ccccc21	20
CC(/C=C/c1ccco1)=N\NC(=O)CNc1cccc(C)c1	11
O=C(Cc1ccccc1)N/N=C/c1cc2c(cc1Cl)OCO2	10
N#C/C(=C\c1ccc(-c2ccc(Br)cc2)o1)C(=O)NCCc1c[nH]c2ccccc12	12
COc1ccc(/C=N/NC(=O)c2cc(-c3ccccc3OC(C)C)nc3ccccc23)cc1CN1CCOCC1	9
CC(=O)Nc1c(O)nc(SCc2ccc(Cl)cc2)[nH]c1=O	18
O=c1c2c3c(sc2nc(NCCO)n1Cc1ccco1)CCCCC3	11
COc1ccc(NC(=O)CSc2nc3c(c(=O)n2-c2ccc(C)cc2)SCC3)c(OC)c1	6
O=C(NCCN1C(=O)S/C(=C\c2ccc(Cl)cc2)C1=O)c1ccc(F)c(S(=O)(=O)N2CCOCC2)c1	14
CC(C)N1CCN(Cc2ccc3nsnc3c2)CC1CCO (stereo unspecified)	11
O=C1CCC([N+](=O)[O-])C(c2cc3c(cc2Br)OCO3)N1 (stereo unspecified)	21

Part of the list above, reformatted:
SMILES,Biofilm kill mix
CCc1ccc(NC(=S)N(CCN2CCOCC2)Cc2ccccc2F)cc1,15
Cc1c(C(=O)OCC(=O)Nc2c(C)n(C)n(-c3ccccc3)c2=O)oc2ccccc12,20
Cc1cc(C)c2c(SC(C)C)nc(N)nc2n1,18
O=C(Nc1ccc(F)cc1)C1CCN(S(=O)(=O)c2cccs2)CC1,25
COc1ccc(-n2nc(C(=O)NCc3ccco3)c3c4ccccc4n(C)c3c2=O)cc1,18
O=C(Nc1nc2ccc(F)cc2s1)C1CCN(S(=O)(=O)c2cc([N+](=O)[O-])ccc2Cl)CC1,18
Cc1nsc(Nc2ccccc2)c1C#N,13
C=CCn1cc(/C=N/Nc2nc3ccccc3[nH]2)c2ccccc21,20
CC(/C=C/c1ccco1)=N\NC(=O)CNc1cccc(C)c1,11
O=C(Cc1ccccc1)N/N=C/c1cc2c(cc1Cl)OCO2,10
N#C/C(=C\c1ccc(-c2ccc(Br)cc2)o1)C(=O)NCCc1c[nH]c2ccccc12,12
COc1ccc(/C=N/NC(=O)c2cc(-c3ccccc3OC(C)C)nc3ccccc23)cc1CN1CCOCC1,9
CC(=O)Nc1c(O)nc(SCc2ccc(Cl)cc2)[nH]c1=O,18
O=c1c2c3c(sc2nc(NCCO)n1Cc1ccco1)CCCCC3,11
COc1ccc(NC(=O)CSc2nc3c(c(=O)n2-c2ccc(C)cc2)SCC3)c(OC)c1,6
O=C(NCCN1C(=O)S/C(=C\c2ccc(Cl)cc2)C1=O)c1ccc(F)c(S(=O)(=O)N2CCOCC2)c1,14
CC(C)N1CCN(Cc2ccc3nsnc3c2)CC1CCO (stereo unspecified),11
O=C1CCC([N+](=O)[O-])C(c2cc3c(cc2Br)OCO3)N1 (stereo unspecified),21

Continuation.
SMILES	Biofilm kill mix
Cc1ccc(/C=N/N=C2/NC(=O)CS2)o1	19
COc1ccc(CCNC(=O)C(=O)NCc2ccc(Cl)cc2)cc1OC	12
CCOC(=O)C1CCN(c2ncnc3c(C)csc23)CC1	14
CCC/C(O)=C1\C(=O)CCCC1=NCCc1c(C)[nH]c2ccc(C)cc12	15
Cc1cc(NCc2ccccc2)n2ncnc2n1	5
O=C(O)CSc1ncnc2sc(-c3ccccc3)cc12	12
Cc1ccn2c(CNCCn3nc(C)cc3C)c(C(=O)N3CCCCCC3)nc2c1	2
COc1cccc(C2c3[nH]c4ccccc4c3CCN2Cc2cccn2-c2ncccn2)c1 (stereo unspecified)	-5
O=C(CCCc1ccccc1)c1ccc2c(c1)OCCO2	3
NC(=O)CSc1nnc(-c2ccccn2)n1N	22
COc1ccc(CC(=O)N2CCN=C2SC)cc1OC	10
CS/C(N)=N/N=C/c1cc(C)ccc1O	-2
CC1(C)CN(c2cccc(C#N)c2)C1=O	19
CC1C(c2ccccc2)N(C)C(c2ccccc2)CC1(O)c1ccc(F)cc1 (stereo unspecified)	-1
COc1ccc(CNC(=O)CC2Sc3ccccc3NC2=O)cc1 (stereo unspecified)	-5
Cc1ccc(-c2nc3c(c(=O)[nH]c(=O)n3Cc3ccccc3)n2Cc2ccccc2)o1	14
O=C(Nc1ccc(Cc2ccncc2)cc1)c1cc([N+](=O)[O-])ccc1N1CCOCC1	5
CC(C)=C(NC(=O)c1ccccc1)C(=O)Nc1ccc(C(=O)O)cc1	16
O=C(Cn1cnc2c(nnn2Cc2ccc(F)cc2)c1=O)N1CCCc2ccccc21	4
CCN(CCn1cccn1)C(=O)c1cc(COc2cccc3cccnc23)on1	12
CC1CN(C(=O)c2ccccc2Nc2ccc(SC(F)F)cc2)CC(C)O1 (stereo unspecified)	10
O=C(NCCOc1ccc(Cl)cc1)C(=O)NCC1CCCO1 (stereo unspecified)	11
CC(=O)N1CCc2ccccc2C1CC(=O)O (stereo unspecified)	9
C/C(=N\Nc1ccc([N+](=O)[O-])cc1)c1ccc(N)cc1	0
C=CCNC(=S)N1CCc2c([nH]c3ccccc23)C1C (stereo unspecified)	-27

The list goes on; it opens with the two that closed the last part.
SMILES	Biofilm kill mix
C/C(=N\Nc1ccc([N+](=O)[O-])cc1)c1ccc(N)cc1	0
C=CCNC(=S)N1CCc2c([nH]c3ccccc23)C1C (stereo unspecified)	-27
COC(=O)N/N=C(\C)c1ccc(OC(F)F)cc1OC(F)F	21
C[n+]1nc(Nc2ccccc2)sc1-c1ccc(C(=O)O)cc1	17
Cc1nc2ccc(S(=O)(=O)Nc3cccc(-c4nc5cccnc5s4)c3C)cc2s1	5
COc1ccc([N+](=O)[O-])cc1NC(=O)c1cn(-c2ccc(C)c(C)c2)c(=O)c2ccccc12	10
COc1ccc(OC)c(NC(=O)CCNC(=O)Cn2cnc3ccccc3c2=O)c1	11
O=C(NC1CC1)c1cc2c(s1)CS(=O)(=O)C2	4
Cc1ccc(-n2ncc3c(NCCCN4CCCC4=O)ncnc32)c(C)c1	10
CC1CCCC(C)N1NC(=O)c1cccc(S(=O)(=O)N2CCc3ccccc32)c1 (stereo unspecified)	16
COC(=O)CCCCCN1C(=O)NC(c2ccc(-c3ccccc3)cc2)C(C(=O)OCc2ccccc2)=C1C (stereo unspecified)	5
Cc1csc(NC(=O)CN2C(=O)c3ccccc3C2=O)c1C(N)=O	16
CNCCCOc1cc(C)cc(C)c1C	5
Nc1o[nH]c(=O)c1Cc1ccccc1	11
COCCNc1nnc(SCC(=O)NNC(=O)c2ccccc2)s1	14
CCOC(=O)n1c(=O)n(Cc2ccc(F)cc2)c2ccccc21	17
Cc1cc(N2CCN(S(=O)(=O)c3ccc(Br)cc3)CC2)n2ncnc2n1	-3
COc1ccc(N(CCCN2C(=O)c3cccc4cccc(c34)C2=O)C(=O)c2cccnc2)cc1	10
N#C/C(=C/c1cn(CC(=O)O)c2ccccc12)C(=O)Nc1ccccc1	7
OCCOCCOc1ccc(-c2nn[nH]n2)cc1	10
Cc1cccc(N2C(=O)CC(NNc3nc4ccccc4s3)C2=O)c1 (stereo unspecified)	9
CCOC(=O)N1CCN(C(=S)NC2CCCCC2)CC1	22
COc1cccc(-c2noc(CCCC(=O)Nc3ccc(C(N)=O)cc3)n2)c1	15
CCOc1ccc(NC(=O)N2CCCC2C(=O)NCC2CCCO2)cc1 (stereo unspecified)	-3
O=C1C2=C(CCCC2)C(=O)N1CNc1ccccc1	20
Cn1nc(-c2ccccc2)cc1NC(=O)c1cccs1	21
CCOC(=O)c1c(/N=C/c2cccc([N+](=O)[O-])c2O)sc(C)c1C	18
(cont.)
SMILES	Biofilm kill mix
CN(Cc1cccc2cnccc12)C(=O)CCc1nnc(CCc2ccccc2)o1	1
CNC(=S)N(Cc1ccco1)Cc1cc2cc(OC)ccc2[nH]c1=O	4
O=C(Nc1nn[nH]n1)c1cc(-c2ccc(Cl)c(Cl)c2Cl)nc2ccccc12	18
C/C(=N/NC(=O)Cn1nc2ccccc2n1)c1ccc(F)cc1	12
Cc1ccc(S(=O)(=O)N2CCC(c3nc4c(nnn4Cc4ccccc4)c(=O)[nH]3)CC2)cc1	12
Cn1c(SCC(=O)N/N=C/c2ccc(O)c(O)c2)nc2ccccc21	9
Nc1ccc(CN2CCOCC2)cc1	6
N#C/C(=N\Nc1ccc(S(=O)(=O)N2CCCCC2)cc1)C(N)=S	13
NNC(=S)NC1CCCCCCCCCCC1	8
CC(C)(C)c1cc(NC(=O)CCSc2nnc3ccccn23)cc(C(C)(C)C)c1	18
COc1ccccc1OCC(=O)NCCSCc1cccc(Cl)c1	11
Cc1ccc2cc(CN(Cc3cccs3)C(=O)c3ccco3)c3nnnn3c2c1C	7
Cc1ccc(NC(=O)c2cc(N3C(=O)C4CCCCC4C3=O)ccc2N2CCOCC2)cc1 (stereo unspecified)	29
COc1ccc(-c2cccc(C3CC=CC4C3C(=O)N(Cc3ccccc3)C4c3ccc(C(F)(F)F)cc3)c2)cc1 (stereo unspecified)	15
COc1ccc(C2CCCN2C(=S)Nc2cccc(C)c2)cc1OC (stereo unspecified)	10
COc1ccc(-c2nn(-c3ccccc3)cc2CNC(=O)c2cccc([N+](=O)[O-])c2)cc1	13
CS(=O)(=O)N(CC(=O)NCCSCc1ccco1)c1ccc2c(c1)OCO2	-1
COc1ccc(-c2cn3cc(C(F)(F)F)cc(Cl)c3n2)cc1	-17
CCOC(=O)c1ccc(NC(=O)CN2CCN(Cc3ccccc3)CC2)cc1	15
CC(=O)Nc1nnc(SCC(=O)c2ccc3c(c2)Cc2ccccc2-3)s1	14
CC1CCN(c2ccc(/C=N\Nc3nncn3N)cc2[N+](=O)[O-])CC1	5
O=c1c2c3c(sc2ncn1/N=C/c1ccccc1)CCCC3	9
O=C(Nc1ccc(N2CCCCC2)cc1)c1ccccn1	-2
CCOc1ccccc1N=C1SC(CC(=O)Nc2ccc(OC)cc2OC)C(=O)N1CCC1=CCCCC1 (stereo unspecified)	6
CCCCn1c(=O)nc2n(-c3ccc(OC)cc3)c3ccccc3cc-2c1=O	1
(continued)
SMILES	Biofilm kill mix
N#CCCn1cc(C(=O)N2CCOCC2)c(-c2ccc3c(c2)OCCO3)n1	15
COC(=O)c1cc(-c2cccs2)[nH]n1	11
CN(CCCC(=O)NC1CC(C)(C)NC(C)(C)C1)S(=O)(=O)c1ccc([N+](=O)[O-])cc1	13
CCOC(=O)/C(N=Nc1cc(C(=O)O)cc(C(=O)O)c1)=C(\O)CCl	-7
COc1ccc(C)cc1NC(=S)NNC(=O)c1c(Br)cnn1C	12
Cc1nc2c(C)cccc2cc1C(=O)N/N=C/c1cccc([N+](=O)[O-])c1	17
COc1ccc(-c2nc3c4ccccc4ccn3c2CN2CCCCC2)cc1	14
CC(C)(C)NCCOCCOc1ccc(Cl)cc1C(C)(C)C	18
Cc1cc(C)nc(NS(=O)(=O)c2ccc(NC(=O)c3cccc(N4C(=O)CCC4=O)c3)cc2)n1	13
COc1ccc(NS(=O)(=O)c2ccc(S(=O)(=O)N(C)C)cc2)cc1S(N)(=O)=O	14
CC(=O)Nc1sc2c(c1C(c1cccc(F)c1)N1CCN(CCO)CC1)CCCC2 (stereo unspecified)	5
COc1ccc(NC(=O)OCCn2c([N+](=O)[O-])cnc2C)cc1	19
Cn1ncc(N2CCN(S(=O)(=O)c3ccc(Br)cc3)CC2)c(Cl)c1=O	7
Cc1ccc(S(=O)(=O)Oc2cccc(/C=N/Nc3ccc(C(=O)O)cc3)c2)cc1	23
Cc1ccc(N(C(=O)c2cc3ccccc3oc2=O)C2C=CS(=O)(=O)C2)cc1 (stereo unspecified)	14
N#Cc1cccc(C#N)c1N1CCC(C#N)CC1	8
O=C(CNCC1CCCCC1)Nc1ccc(OC(F)(F)F)cc1	11
COC(=O)c1ccc(C23CC4(C2)[C@H](CN(Cc2cccnc2)[C@@H]4c2ccccc2)C3c2ccccc2)cc1 (stereo partly specified)	16
COc1cc(NC(=O)CSc2nc(C)c(C)c(C)n2)cc(OC)c1	4
CC(C)[C@H](NC(=O)[C@@H]1Cc2ccccc2CN1C(=O)OC(C)(C)C)C(=O)NCC1CCC(C(=O)O)CC1 (stereo partly specified)	14
O=C(c1ccc(NS(=O)(=O)c2ccc3c(c2)OCCO3)cc1)N1CCCCC1	30
COC(=O)c1ccccc1Oc1nc(Cl)cc(OC)n1	7
Cc1cc(C)c(S(N)(=O)=O)c(C)c1N(C)S(=O)(=O)c1ccccc1	16

High-throughput results (PubChem BioAssay)
